# Ab BasE inh: blocks the Acinetobacter baumannii siderophore enzyme BasE | purified BasE, fluorescence polarization binding displacement | inhibition, % (concentration not given with the values) | AID 485350 | hit rate 0.1% among 84,000;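 active = both replicates above 25% with normal brightness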;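 also: 0% = negative plate control signal and 100% = positive plate control signal; stock transfer was 100 nL into about 30 µL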
# LANA-nucl inh: LANA-nucleosome interaction inhibition; FITC-LANA1-23 / chicken nucleosome fluorescence polarization; hits give low values; z-score (no concentration beside the values); hit rate 0.3% among 51,000;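 active = both repeat wells score below -2 in polarization z-score versus plate sample wells, excluding overly bright wells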;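 also: 100 nL library stock added to about 30 µL; numbers are from one replicate; some results filed as inactive read as strong as hits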
#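 System – purified chicken nucleosomes with FITC-labelled LANA N-terminal peptide (1-23) · Amount – 240 nM purified chicken nucleosomes (480 nM peptide binding sites), final · Also added – 50 nM FITC-LANA1-23 probe · Medium – TEN-BT buffer, pH 7.5 · Incubation – compound with peptide–nucleosome mix 10–45 min at room temperature · Detection – fluorescence polarization, ex 480 nm, em 535 nm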
# * marks the source's active call; other numbers are inactive results; x = not tested or not shown; & = joins results of further samples.
# Below each SMILES: Ab BasE inh | LANA-nucl inh
CNC(=S)NCCN1C(=O)S/C(=C\c2cccnc2)C1=O
 : 0.7 | x
O=C(OCc1ccc2c(c1)OCO2)c1ccc(S(=O)(=O)N2CCCC2)cc1
 : 2.5 | -1.5
N#Cc1c(-c2ccccc2)cc(-c2ccco2)c(C#N)c1N
 : -21 | 1.3
N#C/C(=C\c1cn(CC(=O)NCC2CCCO2)c2ccccc12)C(=O)NCC1CCCO1 (configuration not stated)
 : 0.2 | -1.2
Cc1cc2nc3c(=O)n(C4CCCCC4)c(=O)[nH]c3nc2cc1N=CN(C)C
 : 4.0 | 2.2
Cc1ccc(N2C(=O)NC(=O)/C(=C/c3ccc(Br)o3)C2=O)cc1Cl
 : -6.7 | 1
CCCCNS(=O)(=O)c1c(C)c(C)cc(C)c1C
 : 1.2 | 0.26
C(#Cc1ccccc1)CNCc1ccc2c(c1)OCO2
 : -12 | -0.6
Cc1cc(C)cc(NC(=O)N2CCN(C/C=C/c3ccccc3)CC2)c1
 : 2.3 | -0.69
O=C(OCC(=O)c1ccc(S(=O)(=O)N2CCCC2)cc1)C1=COCCO1
 : -0.7 | x
Cc1nc2ccccn2c1C(=O)N/N=C/c1ccccc1
 : -1.2 | -0.77
CCc1ccc(S(=O)(=O)NCC(=O)O)cc1
 : 0.7 | -0.43
COC(=O)Cn1cnc2c(nnn2Cc2ccccc2F)c1=O
 : -1.6 | 1.8
COC(=O)c1ccc(C(=O)NC(=S)Nc2nc3c(s2)CCCC3)cc1
 : 0.6 | x
Cc1[nH]c(=O)n(CN2CCN(c3ncc(C(F)(F)F)cc3Cl)CC2)c1C
 : 0.4 | x
CCc1ccc2nc(N(CCN(C)C)C(=O)c3cccs3)sc2c1
 : -3.0 | -1
CCn1c(CN2C(=O)c3ccccc3C2=O)nc2cc(S(=O)(=O)N(C)C)ccc21
 : 0.7 | x
CC(=O)O[C@@H]1O[C@@H]2CO[C@@H](c3ccccc3)O[C@H]2[C@H](OC(C)=O)[C@H]1OC(C)=O
 : 0.8 | x
Cc1nc(SCCC(=O)O)c2ccccc2n1
 : 1.0 | x
Cc1cc(C(=O)OCc2nc3ccccc3s2)c(C)o1
 : -2.9 | x
O=C(N1CCOCC1)N1CCN(c2ccccc2)CC1
 : 2.7 | 0.3
N#C/C(=C\c1cn(-c2ccccc2)nc1-c1ccccc1)C(=O)N1CCCCC1
 : -0.1 | x
O=c1c2ccccc2nnn1CSC(=S)N1CCCC1
 : 1.4 | x
CC(C)CC(=O)Nc1cccc(-c2nnc(-c3cccc(NC(=O)CC(C)C)c3)o2)c1
 : 1.0 | -0.41
Cc1c(S(=O)(=O)c2ccc(Cl)cc2)csc1C(=O)Nc1ccc(F)cc1F
 : 0.8 | x
O=C(CSc1nnc(Cc2ccccc2)o1)NCCc1ccccc1
 : 0.1 | 1.1
CSc1nc(C)c(C(=O)CNc2ccccc2)cc1C#N
 : 0.9 | x
COc1ccc(-c2nn(CCC(=O)O)cc2C=C2C(=O)NC(=S)NC2=O)cc1OC
 : 1.3 | x
CC(=O)Oc1ccc2c(c1)CCC1C2CC[C@]2(C)C(=O)CCC12 (some centres not stated)
 : 0.4 | -0.89
COc1ccc(C(=O)N=c2sc3ccccc3n2C)cc1
 : -1.1 | x
O=C(CCc1ccccc1)NCc1ccco1
 : -0.8 | -0.37
Cc1cc(C2C(C#N)=C(N)N(c3ccccc3Cl)C3=C2C(=O)CC(c2ccccc2)C3)c(C)s1 (configuration not stated)
 : -2.7 | x
O=C(CN1CCCCCC1=O)NCCOc1ccccc1F
 : 2.2 | x
OC1(c2ccco2)CSC(=Nc2cccnc2)N1C1CC1 (configuration not stated)
 : 1.2 | x
CC(C)(C)SCC(=O)O
 : -0.9 | x
CC1CCc2c(sc3nnn(CC(=O)c4cccs4)c(=O)c23)C1 (configuration not stated)
 : -0.9 | 0.9
CC1(C)OC(CN)C(CN)O1 (configuration not stated)
 : -0.7 | 0.96
O=C(CSc1nc(-c2ccccc2)cs1)NCCCN1CCCC1=O
 : 1.7 | x
COc1cc([C@@H]2c3cc4c(cc3[C@@H](OC3OC5COC(C)OC5C(O)C3O)[C@H]3COC(=O)[C@H]23)OCO4)cc(OC)c1O (some centres not stated)
 : 1.2 | -0.56
Cc1ccc(CSc2nnc(NC(=O)C3=NNC(=O)CC3)s2)cc1
 : 2.9 | x
C/C(=N/OC(=O)c1ccccc1)C(=O)c1cccs1
 : 1.6 | -1
CCOC(=O)N1CCC(N2Cc3cccc(C(=O)Nc4ccc(S(=O)(=O)N(CC)CC)cc4)c3C2=O)CC1
 : -0.5 | -0.99
O=C1c2ccccc2C(=O)N1CCn1c(=O)oc2ccccc21
 : 3.5 | x
CCN(CC)C(=O)CSc1nnc2nnc3ccccc3n12
 : 3.9 | -0.81
CC1(C)Cc2ccccc2-c2nnc(SCC(=O)N3CCCCC3)n21
 : 0.7 | 1.1
CCN(CC)S(=O)(=O)c1ccc(C(=O)N2CCN(c3ccccc3)CC2)cc1
 : 3.0 | x
CCn1c(SCC(N)=O)nnc1-c1ccoc1C
 : 2.1 | x
O=C(NC1CCCC1)c1cc2c(Cl)ccc3c2n1CCO3
 : 2.6 | -0.21
O=C(CCc1c[nH]c2ccccc12)OCN1C(=O)c2ccccc2C1=O
 : -1.5 | x
Cc1ccc(-c2noc(CNc3ccc(Oc4ccccc4)cc3)n2)cc1
 : 1.2 | x
O=C(O)c1c[nH]c(=O)cc1C(F)(F)F
 : 0.7 | -1.2
CCOc1cccc(C(=O)N2CCCCC2c2cccnc2)c1 (configuration not stated)
 : -2.5 | 0.16
O=C(CNC(=O)c1ccc2ccccc2c1)NCc1ccccn1
 : 2.9 | x
NNC(=O)c1c(O)c2ccccc2[nH]c1=O
 : 3.8 | -0.24
CNCC(=O)NC1CC1
 : -0.7 | x
CC1(C)CC(NC(=O)CCCC(=O)O)CC(C)(C)N1
 : 0.4 | -0.52
C=CCN(CC=C)S(=O)(=O)c1ccc(NC(=O)Nc2ccccc2)cc1
 : 0.7 | 0.29
Cc1ccccc1COc1ccccc1C(=O)O
 : 0.6 | x
COc1cccc(OC)c1C1N=C(N)Nc2nc3ccccc3n21 (configuration not stated)
 : -0.7 | x
O=S(=O)(c1ccc(Cl)cc1)N(CCc1ccccn1)c1ccc(Cl)cc1
 : -2.5 | x

# Going on with the list:
# Below each SMILES: Ab BasE inh | LANA-nucl inh
OC(CN1CCc2ccccc2C1)C(F)(F)F (configuration not stated)
 : x | 0.16
COc1ccc(NC(=O)c2cnc(SC)nc2)cc1
 : 0.7 | 0.003
COc1ccccc1NCC(=O)Nc1ccc(N2CCOCC2)cc1
 : 0.1 | x
CC1=NN(c2nc3ccccc3s2)C(O)(C(F)(F)F)C1 (configuration not stated)
 : 1.3 | x
CCSc1nnc(NC(=O)CC(C)C)s1
 : 0.4 | -0.38
NC(=O)CSc1nsc(SCC(N)=O)n1
 : 0.6 | 0.021
O=C(CN1CC(=O)Nc2ccccc21)Nc1cccc(Cl)c1
 : -0.3 | x
Clc1ccccc1C(c1nnnn1Cc1ccco1)N1CCN(Cc2ccco2)CC1 (configuration not stated)
 : -3.1 | 0.43
O=C(Nc1ccccc1)Nc1c2ccccc2nc(=O)n1Cc1ccccc1
 : -0.3 | -1
CC(=O)O/N=C(\N)c1nccnc1Sc1ccc(Cl)cc1
 : 3.2 | -0.16
CC1(C)Cc2[nH]c(=S)c(C#N)cc2CO1
 : 0.0 | -0.74
CC(Oc1ccc(C(C)C)cc1)C(=O)Nc1nccs1 (configuration not stated)
 : -7.8 | 1.9
N#Cc1ccc(NC(=O)CS(=O)(=O)c2ccccc2)cc1
 : 3.8 | -0.94
O=C(Nc1ccccc1)c1cccnc1
 : 12 | x
O=C(CS(=O)(=O)Nc1cccc(C(F)(F)F)c1)Nc1cccc(C(F)(F)F)c1
 : -0.2 | x
CCOC(=O)C1CCN(c2cc(C)c(C#N)c3nc4ccccc4n23)CC1
 : -4.4 | 1.6
CCCCC[C@H](O)CC(=O)CCc1ccc(O)c(OC)c1
 : 4.2 | -0.091
Nc1nc(Cl)nc2c1ncn2[C@@H]1O[C@H](CO)[C@@H](O)[C@H]1O
 : x | -0.21
CCOc1ccc(NC(=O)CCN2C(=S)NC(C)(C)CC2C)cc1 (configuration not stated)
 : 0.7 | -0.46
Cc1cc(C)n2ncc(C(=O)NC3CCCC3)c2n1
 : 0.6 | -0.59
COc1ccc(C(=O)CSc2nc3ccc(OC)cc3[nH]2)cc1
 : 1.7 | x
CCN1CCN(c2c(C(=O)c3ccccc3)cnc3ccc(OC)cc23)CC1
 : -3.1 | 0.054
CN(C1=NC(=O)CS1)c1ccc(Cl)cc1
 : -3.4 | -1.3
CNC(=S)NN1C(C)CCCC1C (configuration not stated)
 : 1.1 | -0.28
O=c1c(-c2cc3ccccc3o2)[n+]([O-])c2ccccc2n1O
 : 23 | -2.6*
Fc1ccc([C@@H]2CCNC[C@H]2COc2ccc3c(c2)OCO3)cc1
 : 0.1 | 0.29&0.15&0.62&0.92
CCCN1C(=O)/C(=C/c2ccc(C)o2)NC1=S
 : 1.2 | 0.92
CCN(CC)CCNc1cc(C)c2cccc(C)c2n1
 : 0.0 | x
O=C(NCC1CCCO1)c1cccc2ccccc12 (configuration not stated)
 : -1.2 | 0.58
O=c1[nH]c(O)c(C=NC2CCCCCC2)c(=O)[nH]1
 : 4.0 | x
O=C(/C=C/c1ccccc1)CC(=O)c1ccccc1O
 : 1.5 | 1.4
O=C(O)COc1ccccc1/C=N/NC(=O)c1ccccc1
 : 0.8 | x
COC(=O)NN1CC(O)=C(c2nc(-c3ccc(F)cc3)cs2)C1=N
 : -0.1 | x
O=C(CCN1CCN(c2ccccc2)CC1)N/N=C/c1ccncc1
 : 3.2 | x
O=C(NCCCN1CCCCC1)c1ccc(CS(=O)c2ccc(Cl)cc2)o1 (configuration not stated)
 : -1.1 | -0.27
CSc1sc(C(=O)NN)cc1S(=O)(=O)C(C)C
 : -0.9 | x
CN(C)S(=O)(=O)c1cccc(C(=O)NCC2CCCO2)c1 (configuration not stated)
 : 0.8 | -0.55
COC(=O)c1ccc(CSc2nc3ccccc3o2)cc1
 : 0.6 | -0.73
COc1ccc2c(CC(=O)Nc3ccnn3CC(C)C)coc2c1
 : 1.0 | x
O=c1oc2ccccc2n1CCc1nnc(-c2ccccc2)o1
 : -1.3 | -0.11
COc1ccccc1C(=O)Nc1ccc(C)cc1
 : -0.2 | -0.12
COc1ccc(-c2nc3c(C#N)cnn3cc2C)cc1F
 : x | -0.17
CCc1cc2c(=O)n(-c3ccccc3)cnc2s1
 : -1.8 | 0.26
O=C(Nc1ccccc1)Nc1c2c(nc3c1CCC3)CCCC2
 : -1.8 | x
CCOC(=O)c1c(N2C(=O)C3C4C=CC(O4)C3C2=O)sc2c1CCCC2 (configuration not stated)
 : -0.3 | -1.7
COc1ccc(CN(C)Cc2cc(=O)n3ccsc3n2)c(OC)c1OC
 : 1.8 | x
C=C1N(C)c2cc(CN3C(=O)c4ccccc4C3=O)ccc2C1(C)C
 : -15 | x
NC(=O)C1CCN(C(=O)Cc2ccc(-c3ccccc3)cc2)CC1
 : -1.5 | x
Cc1ccc2c(c1)N(CC(=O)N1CCCc3ccccc31)C(=O)CO2
 : -2.9 | -0.8
Cc1nc2c(=O)[nH]c(=O)n(C)c2nc1C
 : 2.5 | -0.31
CC(=O)NCCCc1ccc(-c2csc(N)n2)cc1
 : 2.1 | x
COCCCN=C1NN=C(c2ccc(C)c(C)c2)CS1
 : -4.5 | x
CCC(C)NC(=O)COc1cccc(C)c1C (configuration not stated)
 : 3.0 | -0.31
COCCNc1oc(-c2ccccc2)nc1S(=O)(=O)c1ccc(Cl)cc1
 : 1.6 | 0.75
CCn1c(O)c(C=Nc2cccc(O)c2)sc1=S
 : 0.3 | -2.4*
CCN(c1ccccc1)S(=O)(=O)c1ccc(N2CCN(c3ccccn3)CC2)nc1
 : 1.2 | x
COC(=O)C(=C/C=C/N1CCCCC1)C(=O)OC
 : 0.3 | -0.3
CC(C)c1ccc(NC(=O)c2cccs2)cc1
 : -0.4 | 0.45
CCCCCCCCCCC1=C(C)C(=O)C(OC)=C(OC)C1=O
 : -1.0 | -0.4
COc1cc2nc(CN3CCOCC3)n(CC(=O)NCC(F)(F)F)c(=O)c2cc1OC
 : -0.7 | x

# (further entries)
# Below each SMILES: Ab BasE inh | LANA-nucl inh
Cn1c(=O)c(=O)n(C)c2cc(N3CCCCC3)c(NS(=O)(=O)c3ccc(Br)s3)cc21
 : 0.7 | -0.63
CCOC(=O)c1ccc(N2CC(C)(C)C2=O)cc1
 : x | -0.54
CCC1=NN(C(=O)C(C)C)C(O)(c2ccc(Br)cc2)C1 (configuration not stated)
 : 1.8 | x
CC(C)n1nc(C(=O)Oc2ccc3c(c2)OCO3)c2ccccc2c1=O
 : 0.7 | x
O=S(=O)(Nc1ccccn1)c1cccs1
 : 0.5 | 0.7
COC(=O)c1sccc1N=CC1=C(O)CC(C)(C)CC1=O
 : -0.3 | x
CCn1c2ccccc2c2cc(C(N)=O)ccc21
 : -1.0 | 0.72
Cn1c(=O)c2[nH]cnc2n(-c2ccccc2)c1=O
 : 1.9 | 0.28
C#CCN1CCOCC1
 : -3.7 | 1.6

# Among those listed so far, these have a COOH group:
# Below each SMILES: Ab BasE inh | LANA-nucl inh
CCc1ccc(S(=O)(=O)NCC(=O)O)cc1
 : 0.7 | -0.43
Cc1nc(SCCC(=O)O)c2ccccc2n1
 : 1.0 | x
COc1ccc(-c2nn(CCC(=O)O)cc2C=C2C(=O)NC(=S)NC2=O)cc1OC
 : 1.3 | x
CC(C)(C)SCC(=O)O
 : -0.9 | x
O=C(O)c1c[nH]c(=O)cc1C(F)(F)F
 : 0.7 | -1.2
CC1(C)CC(NC(=O)CCCC(=O)O)CC(C)(C)N1
 : 0.4 | -0.52
Cc1ccccc1COc1ccccc1C(=O)O
 : 0.6 | x
O=C(O)COc1ccccc1/C=N/NC(=O)c1ccccc1
 : 0.8 | x

# Some of the compounds tested (hit frequency here may not be typical).
